# PKD1 kinase inh: blocks activity of human protein kinase D1; PKD1 kinase fluorescence polarization assay; AID 797; inhibition, %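 (about 10 µM by stock and volumes)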; 200,000 compounds, 0.056% hits;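 active = inhibition of 50% or more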;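 note: controls were vehicle for no effect and a reference inhibitor for full effect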
# GALR2 agonist: agonists of human galanin receptor 2 (GALR2). O43603. GALR2-expressing cells, agonist activation read-out. activation, %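 (tested at 5 µM)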. 140,000 compounds, 0.48% hits;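 active = above mean plus 3 SD of all compounds, about 5% in these data, not always enough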;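 note: 0% = vehicle buffer wells and 100% = reference agonist at full effect; tested in CHO reporter cells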
# Insulin prom inh: TRM-6 insulin promoter activity inhibition. inhibition, % at 2 µM. AID 1273. TRM-6 cells (human fetal islet line), insulin promoter-eGFP reporter, imaging; reporter expression induced with tamoxifen. 130,000 compounds, 0.9% hits;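 active = inhibition above the mean plus 3 SD, with well images judged a real hit on visual review, cut at about 60% in these data, passing the limit was not always enough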
# HSV replic up: increases HSV replication in cells; HSV replication augmentation in cells, fold increase; maximum fold increase; 220,000 compounds, 0.005% hits; AID 1956;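 active = peak rise of 1.5-fold or more in the series; tested in PC3 cells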;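 note: first round at 10 µM; read as green reporter fluorescence; hits show the peak of a series up to 25 µM; 1 = signal of infected wells without compound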
# RGS16-Gao HTS: RGS16-Galphao interaction regulator (human); bead-based flow cytometry RGS16-Galphao binding, fluorescence; actives lie on both sides; 220,000 compounds, 0.38% hits; O15492+P09471; binding response (% of control), % at 10 µM;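 active = below 25% or above 175%, edge rows of some plates excepted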;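 note: Galphao activated by GDP with aluminum fluoride before binding; 100% = wells without compound and 0% = beads without RGS; some results beyond the cut were filed as inactive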
# Target sequence (O15492 whole entry, looked up): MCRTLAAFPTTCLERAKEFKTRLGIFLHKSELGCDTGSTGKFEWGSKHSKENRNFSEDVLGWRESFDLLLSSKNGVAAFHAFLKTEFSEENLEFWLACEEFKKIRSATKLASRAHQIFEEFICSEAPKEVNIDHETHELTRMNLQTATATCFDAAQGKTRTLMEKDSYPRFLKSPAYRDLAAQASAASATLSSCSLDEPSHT
# Target sequence (P09471 whole entry, looked up): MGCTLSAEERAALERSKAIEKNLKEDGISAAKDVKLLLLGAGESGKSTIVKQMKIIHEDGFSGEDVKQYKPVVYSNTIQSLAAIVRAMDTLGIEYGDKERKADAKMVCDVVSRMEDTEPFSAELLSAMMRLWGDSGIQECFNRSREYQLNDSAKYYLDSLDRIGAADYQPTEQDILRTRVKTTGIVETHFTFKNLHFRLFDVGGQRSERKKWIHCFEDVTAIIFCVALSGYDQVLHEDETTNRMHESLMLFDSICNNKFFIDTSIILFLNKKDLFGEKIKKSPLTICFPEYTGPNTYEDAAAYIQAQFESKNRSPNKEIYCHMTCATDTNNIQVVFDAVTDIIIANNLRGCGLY
# Insulin prom inh cell count: recorded beside Insulin prom inh, whose call it bears; normalized cell count, %; measured here: cell count, toxicity; reference of the scale not given here;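 cells exposed to compound for 48 h; stained nuclei by imaging scaled within each plate; lower means fewer cells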
# HSV replic up primary fold: second read-out of HSV replic up, no call of its own (marks repeat the call); fold increase; compound at 10 µM; measured here: primary screen fold increase 10 uM; tested in PC3 cells;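 GFP signal in the first replicate; 1 = infected wells without compound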
# Active calls of the source: *; i = inactive; · = not tested or not shown; & = joins results of further samples. Only part of the results is shown (hit frequency here may not be typical).
# Below each SMILES – RGS16-Gao HTS, Insulin prom inh cell count, PKD1 kinase inh, HSV replic up primary fold, GALR2 agonist, Insulin prom inh, HSV replic up
> C#C[C@]1(O)CC[C@H]2[C@@H]3CCC4=CC(=O)CC[C@@H]4[C@H]3CC[C@@]21CC
→ 103.3&98.8, ·, ·, 0.8, ·, ·, i
> CC1(C)Oc2ccc(C#N)cc2[C@@H](N2CCCC2=O)[C@@H]1O
→ 105.4, 73.9, -10.6, 0.72, -1.4, 40.9, i
> CN=C(N)NC(=O)Nc1c(C)cccc1C
→ 102.4, ·, ·, 1.21, ·, ·, i
> CCOC(=O)Nc1ccc2c(c1)N(C(=O)CCN1CCOCC1)c1ccccc1S2
→ 90.6, 80.3, -2.2, 1.03, 2.5, -13.5, i
> Cc1cc(O)c2c(c1)C(=O)c1cccc(O)c1C2=O
→ 106.4, 99.8, -5.0, 1.02, -1.2, -4.5, i
> O=C(c1ccccc1)c1ccc2n1CCC2C(=O)O (centres undefined)
→ 103.4, 75.1, -9.7, 0.91, -2.0, -50.0, i
> COc1cc2c(c(OC)c1OC)-c1c(cc(OC)c(OC)c1OC)C[C@H](C)[C@H](C)C2
→ 88.3, ·, ·, 0.75, ·, ·, i
> COc1cc(C)nc(-n2nc(C)cc2OC)n1
→ 99.8, 126.1, -0.5, 1.02, -0.9, 22.7, i
> COc1cc(C(=O)NCCCCCC(=O)O)cc(OC)c1OC
→ 107.0, 103.3, 2.5, 1.01, -2.4, 28.1, i
> Oc1cc2c(cc1O)C1c3ccc(O)c(O)c3OCC1(O)C2 (centres undefined)
→ 3.4*, ·, -1.4, 0.99, ·, ·, i
> Cc1ccsc1/C=C/C1=NCCCN1C
→ 103.6, 88.2, -7.0, 0.94, -1.6, -127.3, i
> CN(C)C(=N)N=C(N)N
→ ·, 111.2, -2.9, ·, 0.0, -4.3, ·
> C/C=C(/C)C(=O)O[C@@H]1c2cc3c(c4c2[C@@]2(CO4)C(=O)C(OC)=C(OC)C=C2C[C@@H](C)[C@H]1C)OCO3
→ 99.9, ·, ·, 0.75, ·, ·, i
> CCN(CC)CCOC(=O)C(c1ccccc1)c1ccccc1
→ 105.9, 126.1, 0.6, 0.94, -1.3, 42.9, i
> COc1ccc(Sc2ccc(NC(=O)c3ccccc3Cl)cc2C#N)cc1
→ 99.1, 178.2, -1.7, 0.88, -2.5, 12.9, i
> OCCOCCN1CCN(C(c2ccccc2)c2ccc(Cl)cc2)CC1 (centres undefined)
→ 99.3, 106.5, -7.0, 0.73, -0.3, -33.3, i
> CN(CCOc1ccc(NS(C)(=O)=O)cc1)CCc1ccc(NS(C)(=O)=O)cc1
→ 102.0, ·, ·, 0.82, ·, ·, i
> O=C1CCc2cc(OCCCCc3nnnn3C3CCCCC3)ccc2N1
→ 91.9&97.9&102.8, 86.5, -0.7, 0.81, 0.3, 40.9, i
> CCCc1cc(C(N)=S)ccn1
→ 102.5, 118.1, -2.9, 1.01, -1.8, 8.3, i
> CC(=O)O[C@@]12CO[C@@H]1C[C@H](O)[C@@]1(C)C(=O)[C@H](O)C3=C(C)[C@@H](OC(=O)[C@H](O)[C@@H](NC(=O)OC(C)(C)C)c4ccccc4)C[C@](O)([C@@H](OC(=O)c4ccccc4)[C@H]21)C3(C)C
→ 105.5, ·, ·, 0.57, ·, ·, i
> CN(C)CCOC(=O)C(c1ccccc1)C1(O)CCCC1 (centres undefined)
→ 102.5, 151.9, 1.2, 0.9, -1.4, 4.8, i
> CCCN(CCC)C(=O)C(CCC(=O)O)NC(=O)c1ccccc1 (centres undefined)
→ 105.9, 147.4, -1.9, 0.77, -2.5, -4.8, i
> COc1cc(NC(=O)c2cc(C3CC3)on2)c(OC)cc1Cl
→ 103.1, ·, -3.3, 0.87, -2.5, ·, i
> COc1ccc(S(=O)(=O)Nc2nnc(CC(C)C)s2)cc1
→ 103.9, 169.1, -3.5, 1.09, -0.6, -6.7, i
> CCC12CCCN3CCc4c(n(c5ccccc45)C(O)(C(=O)OC)C1)C32 (centres undefined)
→ 113.9, ·, ·, 1.08, ·, ·, i
> OCC(O)CN1CCN(c2ccccc2)CC1 (centres undefined)
→ 107.2, 73.9, -1.1, 0.92, -0.9, -14.3, i
> C[C@@H]1C[C@H]2[C@@H]3C[C@H](F)C4=CC(=O)C(Cl)=C[C@]4(C)[C@@]3(F)[C@@H](O)C[C@]2(C)[C@@]1(O)C(=O)CO
→ 97.2, ·, ·, 0.74, ·, ·, i
> CCCCOC(=O)c1ccc(N)cc1
→ 99.2, 147.8, -8.1, 0.85, -0.5, 50.0, i
> CCOc1ccc(NC(=S)N2CCC(C(O)(c3ccccc3)c3ccccc3)CC2)cc1
→ 110.7, 66.0, -5.1, 0.65, -1.5, 0.0, i
> O=C(O)CCCCCCCC(=O)O
→ 109.7, 36.5, 1.4, 0.82, -0.9, 14.3, i

# No new results follow: 2 of the compounds above.
# Below each SMILES – RGS16-Gao HTS, Insulin prom inh cell count, PKD1 kinase inh, HSV replic up primary fold, GALR2 agonist, Insulin prom inh, HSV replic up
> O=C(c1ccccc1)c1ccc2n1CCC2C(=O)O (centres undefined)
→ 103.4, 75.1, -9.7, 0.91, -2.0, -50.0, i
> COc1cc2c(c(OC)c1OC)-c1c(cc(OC)c(OC)c1OC)C[C@H](C)[C@H](C)C2
→ 88.3, ·, ·, 0.75, ·, ·, i

# (next part)
# Below each SMILES – RGS16-Gao HTS, Insulin prom inh cell count, PKD1 kinase inh, HSV replic up primary fold, GALR2 agonist, Insulin prom inh, HSV replic up
> O=C(NCCN1CCOCC1)c1ccc(Cl)cc1
→ 101.4, ·, 1.6, 0.88, -2.4, ·, i
> Cc1oncc1C(=O)Nc1ccc(C(F)(F)F)cc1
→ 103.9, 125.3, -8.7, 0.97, -0.9, 36.4, i
> CN1CCN(c2c(F)cc3c(=O)c(C(=O)O)cn4c3c2SCC4)CC1
→ 104.1&103.2, 120.1, 3.2, 0.98, -1.0, -7.4, i
> CN1CCC(=C2c3ccccc3CC(=O)c3sccc32)CC1
→ 105.3&108.6, 115.1, -5.2, 0.81, 0.1, 40.9, i

# An excerpt of these results, as comma-separated lines.
molecule,RGS16-Gao HTS,Insulin prom inh cell count,PKD1 kinase inh,HSV replic up primary fold,GALR2 agonist,Insulin prom inh,HSV replic up
C#C[C@]1(O)CC[C@H]2[C@@H]3CCC4=CC(=O)CC[C@@H]4[C@H]3CC[C@@]21CC,103.3&98.8,·,·,0.8,·,·,i
CC1(C)Oc2ccc(C#N)cc2[C@@H](N2CCCC2=O)[C@@H]1O,105.4,73.9,-10.6,0.72,-1.4,40.9,i
CN=C(N)NC(=O)Nc1c(C)cccc1C,102.4,·,·,1.21,·,·,i
CCOC(=O)Nc1ccc2c(c1)N(C(=O)CCN1CCOCC1)c1ccccc1S2,90.6,80.3,-2.2,1.03,2.5,-13.5,i
Cc1cc(O)c2c(c1)C(=O)c1cccc(O)c1C2=O,106.4,99.8,-5.0,1.02,-1.2,-4.5,i
O=C(c1ccccc1)c1ccc2n1CCC2C(=O)O (centres undefined),103.4,75.1,-9.7,0.91,-2.0,-50.0,i
COc1cc2c(c(OC)c1OC)-c1c(cc(OC)c(OC)c1OC)C[C@H](C)[C@H](C)C2,88.3,·,·,0.75,·,·,i
COc1cc(C)nc(-n2nc(C)cc2OC)n1,99.8,126.1,-0.5,1.02,-0.9,22.7,i
COc1cc(C(=O)NCCCCCC(=O)O)cc(OC)c1OC,107.0,103.3,2.5,1.01,-2.4,28.1,i
Oc1cc2c(cc1O)C1c3ccc(O)c(O)c3OCC1(O)C2 (centres undefined),3.4*,·,-1.4,0.99,·,·,i
Cc1ccsc1/C=C/C1=NCCCN1C,103.6,88.2,-7.0,0.94,-1.6,-127.3,i
CN(C)C(=N)N=C(N)N,·,111.2,-2.9,·,0.0,-4.3,·
C/C=C(/C)C(=O)O[C@@H]1c2cc3c(c4c2[C@@]2(CO4)C(=O)C(OC)=C(OC)C=C2C[C@@H](C)[C@H]1C)OCO3,99.9,·,·,0.75,·,·,i

# From PubChem
